FGF22 binding – binders of human FGF22 protein, primary screen, FGF22 synaptogenesis inhibitor project, biophysical, thermal shift, single point | calls only at 9.99 µM | Fibroblast growth factor 22 (Homo sapiens), Q9HCT0 | AID 651658, 2012 | hit rate 1.5% among 340,000 | recombinant FGF22 thermal shift, SYPRO orange fluorescence; percent of sucrose octasulfate shift, DMSO zero;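 active = melting point raised past a set limit in the mean and every replicate; three in four hits are not shown here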
Target sequence (Q9HCT0 whole entry, looked up): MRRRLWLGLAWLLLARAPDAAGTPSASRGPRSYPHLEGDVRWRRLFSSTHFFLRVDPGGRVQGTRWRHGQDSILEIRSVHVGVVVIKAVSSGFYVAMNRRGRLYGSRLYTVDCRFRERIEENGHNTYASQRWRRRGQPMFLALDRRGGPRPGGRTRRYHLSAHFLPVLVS
MLL AF4-AF9 inh – inhibitors of AF4 peptide binding to AF9, primary screen, biochemical, AlphaScreen, biotin-AF4 peptide, FLAG-AF9, single point. inhibition, % at 10 µM. hit rate 0.47% among 350,000. AID 651704, 2012;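 active = every replicate reaching a set inhibition limit, whatever the replicate mean, cut at about 25% in these data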;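 note: 0% = plate neutral control median and 100% = total signal loss; the record names both 10 and 1 µM as test concentration; the first replicate is given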
Target sequence (P42568 whole entry, looked up): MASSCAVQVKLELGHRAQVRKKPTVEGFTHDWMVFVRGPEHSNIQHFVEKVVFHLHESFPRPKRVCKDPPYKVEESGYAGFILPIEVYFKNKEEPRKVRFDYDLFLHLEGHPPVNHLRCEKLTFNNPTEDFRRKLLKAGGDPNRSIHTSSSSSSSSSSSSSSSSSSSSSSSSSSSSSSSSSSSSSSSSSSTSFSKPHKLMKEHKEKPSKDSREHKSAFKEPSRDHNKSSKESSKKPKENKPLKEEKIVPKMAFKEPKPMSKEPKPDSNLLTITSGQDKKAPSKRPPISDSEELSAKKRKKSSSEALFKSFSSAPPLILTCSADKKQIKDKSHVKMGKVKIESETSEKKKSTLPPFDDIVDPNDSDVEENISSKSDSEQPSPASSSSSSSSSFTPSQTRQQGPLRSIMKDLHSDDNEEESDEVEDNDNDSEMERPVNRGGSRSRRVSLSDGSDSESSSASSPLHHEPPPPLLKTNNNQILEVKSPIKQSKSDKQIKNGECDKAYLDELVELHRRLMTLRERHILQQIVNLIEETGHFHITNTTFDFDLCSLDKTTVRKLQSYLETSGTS
An asterisk follows results filed as active; i = inactive.

SMILES	FGF22 binding	MLL AF4-AF9 inh
COc1ccc(NC(=O)Nc2ccc3c(c2)C(=O)N([C@H](C)CO)C[C@H](C)[C@@H](CN(C)S(=O)(=O)c2ccc(F)cc2)OCCCC[C@H](C)O3)cc1	i	-0.9
CC(C)NC(=O)N(C)C[C@H]1Oc2ccc(NS(=O)(=O)c3cn(C)cn3)cc2C(=O)N([C@@H](C)CO)C[C@@H]1C	i	-4.2
N#C[C@H]1[C@@H](c2ccccc2-c2cccc(F)c2)[C@@H](CO)N1C(=O)CN1CCOCC1	i	-1.5
N#C[C@@H]1[C@@H](c2ccccc2-c2ccc(F)cc2)[C@H](CO)N1C(=O)Cc1cccnc1	i	-0.5
CC(C)CC#Cc1ccc2c(c1)O[C@H](CN(C)C(=O)C1CCOCC1)[C@H](C)CN([C@H](C)CO)S2(=O)=O	i	1.5
C[C@@H]1CCCCO[C@H](CN(C)S(=O)(=O)c2ccc(Cl)cc2)[C@@H](C)CN([C@H](C)CO)C(=O)c2cc(NC(=O)NC3CCCCC3)ccc2O1	i	-0.2
C[C@@H]1CN([C@H](C)CO)C(=O)c2cc(NC(=O)NC3CCCCC3)ccc2O[C@@H](C)CCCCO[C@H]1CN(C)S(=O)(=O)c1ccc(F)cc1	i	-2.9
O=C(Nc1cc(F)ccc1F)N1CC(=O)N2[C@H](CO)[C@@H](c3ccc(C#CC4CCCCC4)cc3)[C@@H]2C1	i	4.0
C[C@@H]1CN([C@H](C)CO)C(=O)c2cccc(NC(=O)C3CC3)c2O[C@@H]1CN(C)S(C)(=O)=O	i	-3.4
COc1cccc(S(=O)(=O)Nc2ccc3c(c2)[C@H]2C[C@@H](CC(=O)NCCc4ccccc4)O[C@H](CO)[C@H]2O3)c1	i	0.0
Cc1ccc(S(=O)(=O)N[C@@H]2CC[C@@H](CCn3cc(-c4ccccc4F)nn3)O[C@H]2CO)cc1	i	0.7
Cc1ccc(S(=O)(=O)N[C@@H]2C=C[C@@H](CC(=O)NCCN3CCCCC3)O[C@@H]2CO)cc1	i	-1.0
C[C@@H](O)C#Cc1ccc([C@@H]2[C@H](CO)N3CCCCN(C(=O)c4ccc5c(c4)OCO5)C[C@@H]23)cc1	i	3.0
CC(C)NC(=O)Nc1cccc2c1O[C@H](CN(C)Cc1ccc(Cl)c(Cl)c1)[C@@H](C)CN([C@@H](C)CO)C2=O	i	4.4
CCCNC(=O)N1CCC2(CC1)CN(Cc1ccccc1)[C@@H](CO)c1[nH]c3cc(OC)ccc3c12	i	2.6
OC[C@H]1[C@H](c2ccc(-c3cccc(F)c3)cc2)[C@H]2CN(CCC(F)(F)F)CCCCN21	i	7.6
C[C@@H]1CN([C@H](C)CO)C(=O)c2cc(C#C[C@@H](C)O)cnc2O[C@@H]1CN(C)C(=O)CN(C)C	i	-0.7
CC(=O)N1[C@H](C(=O)N2CCCCC2)[C@@H](CO)[C@@H]2Cn3c(ccc(-c4ccccc4)c3=O)[C@@H]21	i	-3.0
C[C@@H]1CN([C@H](C)CO)C(=O)c2cc(NC(=O)Nc3cccc4ccccc34)ccc2O[C@H]1CN(C)Cc1ccncc1	i	0.6
CC(C)NC(=O)Nc1ccc2c(c1)CC(=O)N([C@H](C)CO)C[C@@H](C)[C@H](CN(C)S(=O)(=O)c1ccc(Cl)cc1)O2	i	-1.9
CO[C@@H](CN(C)CC1CCOCC1)[C@@H](C)CN(C(=O)Nc1ccc(F)cc1)[C@@H](C)CO	i	-2.3
C[C@H](NC(=O)C[C@@H]1CC[C@@H]2[C@H](COC[C@H](O)CN2C)O1)c1ccccc1	i	-2.7
CN(C)CC(=O)Nc1ccc2c(c1)[C@@H]1C[C@@H](CC(=O)NCc3ccncc3)O[C@@H](CO)[C@@H]1O2	i	-1.7
CC(C)CC#Cc1cnc2c(c1)C(=O)N([C@@H](C)CO)C[C@H](C)[C@H](CN(C)C(=O)Nc1ccccc1F)O2	i	-1.0
COc1ccc(CN(C)C[C@H]2Oc3c(NC(=O)Nc4ccc(OC)cc4)cccc3C(=O)N([C@H](C)CO)C[C@@H]2C)cc1	i	2.3

(listing goes on)
SMILES	FGF22 binding	MLL AF4-AF9 inh
C[C@@H]1CN([C@H](C)CO)C(=O)c2cc(NC(=O)Nc3cccc4ccccc34)ccc2O[C@@H]1CN(C)CC1CCCCC1	i	8.6
C[C@@H]1CN([C@H](C)CO)C(=O)c2cc(NS(C)(=O)=O)ccc2O[C@@H]1CN(C)S(=O)(=O)c1cccs1	i	-2.0
O=C(c1cnccn1)N1CC(=O)N2[C@H](CO)[C@H](c3ccc(C#CCc4ccccc4)cc3)[C@H]2C1	i	-2.9
O=C(C[C@@H]1C[C@@H]2c3cc(NC(=O)Nc4ccccc4)ccc3O[C@@H]2[C@@H](CO)O1)NCc1cccc(F)c1	i	-0.3
CNC(=O)C[C@H]1CC[C@H]2[C@H](COc3ccc(NC(=O)Nc4ccccc4OC)cc3C(=O)N2C)O1	i	-2.2
CC(=O)N(C)C[C@@H]1[C@@H](c2ccc(-c3ccccc3F)cc2)[C@@H](CO)N1C(C)=O	i	2.5
CCCc1cn(CC[C@@H]2CC[C@H](NS(=O)(=O)c3ccccc3Cl)[C@H](CO)O2)nn1	i	2.5
C[C@H](CO)N1C[C@H](C)[C@H](CN(C)CC2CC2)Oc2c(NS(=O)(=O)c3ccc(F)cc3)cccc2C1=O	i	-2.3
CN1CCN(C(=O)C[C@@H]2C=C[C@H](NC(=O)Cc3ccccn3)[C@@H](CO)O2)CC1	i	-0.5
C[C@@H]1CN([C@H](C)CO)C(=O)c2cc(NS(=O)(=O)c3cn(C)cn3)ccc2O[C@H]1CN(C)CC1CC1	i	-22
C[C@H]1CN([C@@H](C)CO)S(=O)(=O)c2ccc(/C=C/c3ccccc3)cc2O[C@@H]1CN(C)C(=O)C1CC1	i	9.2
O=C(Cc1ccccn1)N[C@@H]1CC[C@@H](CCNS(=O)(=O)c2cccc(F)c2)O[C@@H]1CO	i	-3.0
CO[C@@H]1CN(C)C(=O)c2cc(NC(=O)C3CC3)ccc2OC[C@H](C)N(CCC(F)(F)F)C[C@H]1C	i	-1.5
C[C@@H]1CN([C@H](C)CO)S(=O)(=O)c2ccc(C#C[C@@H](C)O)cc2O[C@@H]1CN(C)Cc1ccncc1	i	3.4
C[C@@H]1CN([C@H](C)CO)C(=O)c2cc(NC(=O)c3ccccc3)ccc2O[C@@H](C)CCCCO[C@H]1CN(C)C(=O)Nc1ccc(C(F)(F)F)cc1	i	-11
O=C(c1cccnc1)N1CC2(C1)[C@H](c1ccccc1)[C@H](CO)N2C(=O)c1cccnc1	i	-2.0
CC(C)NC(=O)N[C@@H]1C[C@@H]2O[C@H](CO)CC[C@@H]2O[C@@H]1CCc1ccc(-c2ccccc2F)cc1	i	3.2
C[C@H]1CN([C@@H](C)CO)C(=O)CCCn2cc(nn2)CO[C@@H]1CN(C)Cc1cccc(O)c1	i	-1.1
CO[C@H]1CN(C)C(=O)c2cc(NS(=O)(=O)c3ccc(-c4ccccc4)cc3)ccc2OC[C@@H](C)NC[C@H]1C	i	1.1
CC(C)C#Cc1ccc([C@@H]2[C@@H](CO)N3C(=O)CN(C(=O)NC4CCCC4)C[C@H]23)cc1	i	-0.8
C[C@@H]1CN([C@@H](C)CO)C(=O)c2cc(NC(=O)Nc3ccccc3)ccc2O[C@@H]1CN(C)S(C)(=O)=O	i	-2.4
O=C(C[C@@H]1C[C@H]2c3cc(NC(=O)C4CCOCC4)ccc3O[C@H]2[C@H](CO)O1)NCc1ccc(Cl)cc1	i	0.2
C[C@@H]1CN([C@@H](C)CO)C(=O)c2cc(NC(=O)CCN3CCOCC3)ccc2O[C@@H]1CN(C)C(=O)Nc1ccc(F)cc1	i	-1.8
COc1ccc(-c2ccc3n(c2=O)C[C@@H]2[C@@H](CO)[C@H](C(=O)NCC4CC4)[C@H]3N2S(C)(=O)=O)cc1	i	-0.5
CN(C)CC(=O)N1CCCCN2[C@H](C1)[C@H](c1ccc(-c3ccccc3)cc1)[C@@H]2CO	i	2.1

3 entries out of the list, arranged by count of non-hydrogen atoms, ascending.
SMILES	FGF22 binding	MLL AF4-AF9 inh
COc1ccc(-c2ccc3n(c2=O)C[C@@H]2[C@@H](CO)[C@H](C(=O)NCC4CC4)[C@H]3N2S(C)(=O)=O)cc1	i	-0.5
CNC(=O)C[C@H]1CC[C@H]2[C@H](COc3ccc(NC(=O)Nc4ccccc4OC)cc3C(=O)N2C)O1	i	-2.2
C[C@@H]1CN([C@H](C)CO)C(=O)c2cc(NC(=O)Nc3cccc4ccccc34)ccc2O[C@@H]1CN(C)CC1CCCCC1	i	8.6

Gathered by group: those above containing a CF3 group.
SMILES	FGF22 binding	MLL AF4-AF9 inh
OC[C@H]1[C@H](c2ccc(-c3cccc(F)c3)cc2)[C@H]2CN(CCC(F)(F)F)CCCCN21	i	7.6
CO[C@@H]1CN(C)C(=O)c2cc(NC(=O)C3CC3)ccc2OC[C@H](C)N(CCC(F)(F)F)C[C@H]1C	i	-1.5
C[C@@H]1CN([C@H](C)CO)C(=O)c2cc(NC(=O)c3ccccc3)ccc2O[C@@H](C)CCCCO[C@H]1CN(C)C(=O)Nc1ccc(C(F)(F)F)cc1	i	-11

Carrying on:
SMILES	FGF22 binding	MLL AF4-AF9 inh
COc1ccc(NC(=O)Nc2ccc3c(c2)C(=O)N([C@H](C)CO)C[C@@H](C)[C@H](CN(C)Cc2ccc(-c4ccccc4)cc2)O3)cc1	i	3.3
C[C@H]1CCCCO[C@H](CN(C)Cc2ccc(Cl)c(Cl)c2)[C@@H](C)CN([C@@H](C)CO)C(=O)c2cc(NC(=O)NC3CCCCC3)ccc2O1	i	0.1
COc1ccc(S(=O)(=O)N[C@H]2CC[C@@H](CCNC(=O)CN3CCOCC3)O[C@H]2CO)cc1	i	-2.8
C[C@@H]1CCCCO[C@@H](CN(C)Cc2ccccc2)[C@H](C)CN([C@@H](C)CO)C(=O)c2cc(N(C)C)ccc2O1	i	1.5
COc1ccc(CN(C)C[C@H]2Oc3ccc(NC(=O)CCN4CCOCC4)cc3CC(=O)N([C@@H](C)CO)C[C@@H]2C)cc1	i	-0.4
O=C(NC1CCCC1)N1CCCCN2[C@@H](CO)[C@@H](c3ccc(-c4ccccc4)cc3)[C@@H]2C1	i	4.1
O=C(NCC[C@@H]1CC[C@H](NC(=O)c2cccnc2)[C@H](CO)O1)Nc1ccc(F)cc1	i	8.8
C[C@@H]1CCCCO[C@H](CN(C)Cc2ccc(C(=O)O)cc2)[C@H](C)CN([C@H](C)CO)C(=O)c2cc(NS(=O)(=O)c3cccs3)ccc2O1	i	-2.6
C[C@@H]1CN([C@H](C)CO)C(=O)c2cccc(NC(=O)c3cnccn3)c2O[C@@H]1CN(C)Cc1ccncc1	i	-2.5
C[C@@H]1CN([C@@H](C)CO)C(=O)c2cc(-c3ccc(C#N)cc3)cnc2O[C@H]1CN(C)C(=O)CC1CC1	i	-2.6
C[C@H](CO)N1C[C@H](C)[C@H](CN(C)S(=O)(=O)Cc2ccccc2)OCc2ccccc2-c2c(n(C)c3ccccc23)C1=O	i	7.5
O=S(=O)(N[C@H]1CC[C@@H](CCn2cc(-c3cccnc3)nn2)O[C@@H]1CO)c1ccccc1	i	-1.3
C[C@@H]1CCCCO[C@H](CN(C)C(=O)Nc2ccc3c(c2)OCO3)[C@@H](C)CN([C@H](C)CO)C(=O)c2cc(NC(=O)Nc3ccc4c(c3)OCO4)ccc2O1	i	-0.2
CC=Cc1ccc2n(c1=O)C[C@H]1[C@H](CO)[C@@H](C(=O)NCC)N(Cc3cccc(F)c3)[C@@H]21 (mixture of isomers)	i	5.6
C[C@@H](NC(=O)C[C@H]1CC[C@H]2[C@@H](COC[C@H](O)CN2C(=O)Nc2cccc(F)c2)O1)c1ccccc1	i	-1.7
CO[C@@H]1CN(C)C(=O)c2ccc(NC(=O)c3ccccc3F)cc2OC[C@@H](C)NC[C@@H]1C	i	-3.7
C[C@H](CO)N1C[C@H](C)[C@H](CN(C)S(=O)(=O)c2ccc(F)cc2)Oc2cc(C3=CCCC3)ccc2S1(=O)=O	i	0.1
CCC(=O)N(C)C[C@@H]1Oc2cc(C#CC(C)C)ccc2S(=O)(=O)N([C@@H](C)CO)C[C@@H]1C	i	0.0
COCC(=O)Nc1ccc2c(c1)OC[C@@H](C)N(C(=O)Cc1cccnc1)C[C@H](C)[C@@H](OC)CN(C)C2=O	i	-0.4
COc1ccc(S(=O)(=O)Nc2ccc3c(c2)C(=O)N([C@@H](C)CO)C[C@H](C)[C@@H](CN(C)Cc2ccccc2)O3)cc1	i	1.8
CC(C)NC(=O)Nc1ccc2c(c1)CC(=O)N([C@H](C)CO)C[C@@H](C)[C@H](CN(C)C(=O)NC(C)C)O2	i	-2.1
C[C@H](CO)N1C[C@H](C)[C@H](CN(C)S(C)(=O)=O)OCCCC[C@H](C)Oc2ccc(NS(=O)(=O)c3cn(C)cn3)cc2C1=O	i	-0.7
C[C@H](CO)N1C[C@H](C)[C@H](CN(C)S(=O)(=O)c2ccccc2)Oc2ccc(NC(=O)Nc3ccc(C(F)(F)F)cc3)cc2C1=O	i	-2.2
COc1ccc(S(=O)(=O)Nc2ccc3c(c2)CC(=O)N([C@H](C)CO)C[C@@H](C)[C@@H](CN(C)C(=O)Nc2c(C)noc2C)O3)cc1	i	-4.1
C/C=C/c1ccc2c(c1)O[C@H](CN(C)C(=O)c1cccnc1)[C@H](C)CN([C@H](C)CO)S2(=O)=O	i	-0.1
C[C@H]1CN([C@@H](C)CO)C(=O)Cc2cc(NC(=O)Nc3ccccc3)ccc2O[C@@H]1CN(C)Cc1ccc(Cl)c(Cl)c1	i	-1.9

Pulled by structure from the list above:
SMILES	FGF22 binding	MLL AF4-AF9 inh
C[C@H]1CCCCO[C@H](CN(C)Cc2ccc(Cl)c(Cl)c2)[C@@H](C)CN([C@@H](C)CO)C(=O)c2cc(NC(=O)NC3CCCCC3)ccc2O1	i	0.1
C[C@H](CO)N1C[C@H](C)[C@H](CN(C)S(=O)(=O)c2ccccc2)Oc2ccc(NC(=O)Nc3ccc(C(F)(F)F)cc3)cc2C1=O	i	-2.2

Screening results from PubChem.

Not all compounds are listed, so the mix of outcomes need not match the whole.
